GALR2 ag – GALR2 (human) receptor agonism; O43603; GALR2-expressing cells, agonist activation read-out; activation, %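 (tested at 5 µM)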; hit rate 0.48% among 140,000; AID 803;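 active means above mean plus 3 SD of all compounds, about 5% in these data, not always enough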;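 further: 0% = vehicle buffer wells and 100% = reference agonist at full effect; tested in CHO reporter cells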
Target sequence (O43603 whole entry, looked up): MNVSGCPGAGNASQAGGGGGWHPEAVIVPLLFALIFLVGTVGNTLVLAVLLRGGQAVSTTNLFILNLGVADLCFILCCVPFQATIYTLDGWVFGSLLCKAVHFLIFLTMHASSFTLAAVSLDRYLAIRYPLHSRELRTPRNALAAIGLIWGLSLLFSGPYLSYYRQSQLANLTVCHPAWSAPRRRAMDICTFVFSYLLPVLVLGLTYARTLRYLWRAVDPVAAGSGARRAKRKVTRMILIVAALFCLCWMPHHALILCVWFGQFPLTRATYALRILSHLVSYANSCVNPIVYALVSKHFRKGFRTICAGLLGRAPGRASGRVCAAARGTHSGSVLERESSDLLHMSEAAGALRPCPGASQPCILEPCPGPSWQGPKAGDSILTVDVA
Insulin prom inh – TRM-6 insulin promoter activity inhibition | TRM-6 cells (human fetal islet line), insulin promoter-eGFP reporter, imaging; reporter expression induced with tamoxifen | hit rate 0.9% among 130,000 | inhibition, % at 2 µM | AID 1273;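 active means inhibition above the mean plus 3 SD, with well images judged a real hit on visual review, cut at about 60% in these data, passing the limit was not always enough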
RGS16-Gao – RGS16-Galphao interaction regulator (human); O15492+P09471; bead-based flow cytometry RGS16-Galphao binding, fluorescence; actives lie on both sides; binding response (% of control), % at 10 µM; hit rate 0.38% among 220,000; AID 1441;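 active means below 25% or above 175%, edge rows of some plates excepted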;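 further: Galphao activated by GDP with aluminum fluoride before binding; 100% = wells without compound and 0% = beads without RGS; some results beyond the cut were filed as inactive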
Target sequence (O15492 whole entry, looked up): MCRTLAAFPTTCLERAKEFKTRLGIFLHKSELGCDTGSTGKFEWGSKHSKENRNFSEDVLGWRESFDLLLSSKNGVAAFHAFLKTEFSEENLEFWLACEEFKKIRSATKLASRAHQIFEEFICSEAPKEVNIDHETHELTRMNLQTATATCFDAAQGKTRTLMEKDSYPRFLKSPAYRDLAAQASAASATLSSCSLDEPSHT
Target sequence (P09471 whole entry, looked up): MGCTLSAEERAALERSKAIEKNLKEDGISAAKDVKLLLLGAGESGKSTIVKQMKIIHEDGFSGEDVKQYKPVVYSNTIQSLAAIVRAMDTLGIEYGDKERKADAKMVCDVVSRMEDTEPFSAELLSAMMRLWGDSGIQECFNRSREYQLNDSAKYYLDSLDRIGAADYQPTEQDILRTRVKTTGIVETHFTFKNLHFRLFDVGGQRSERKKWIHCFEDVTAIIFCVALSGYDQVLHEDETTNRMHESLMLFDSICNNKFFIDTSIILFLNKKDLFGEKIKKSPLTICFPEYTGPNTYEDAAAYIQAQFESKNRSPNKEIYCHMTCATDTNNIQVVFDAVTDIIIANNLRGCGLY
PKD1 kinase inh – PKD1 (human) kinase inhibition. Q15139. PKD1 kinase fluorescence polarization assay. inhibition, %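 (about 10 µM by stock and volumes)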. hit rate 0.056% among 200,000. AID 797;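 active means inhibition of 50% or more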;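 further: controls were vehicle for no effect and a reference inhibitor for full effect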
HSV augment – increases HSV replication in cells; hit rate 0.005% among 220,000; HSV replication augmentation in cells, fold increase; maximum fold increase; AID 1956;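 active means peak rise of 1.5-fold or more in the series; tested in PC3 cells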;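 further: first round at 10 µM; read as green reporter fluorescence; hits show the peak of a series up to 25 µM; 1 = signal of infected wells without compound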
Insulin prom inh cell count – also measured in Insulin prom inh; calls as there; normalized cell count, %; measured here: cell count, toxicity; reference of the scale not given here;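 cells exposed to compound for 48 h; stained nuclei by imaging scaled within each plate; lower means fewer cells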
HSV augment primary fold – also measured in HSV augment; calls as there; fold increase; compound at 10 µM; measured here: primary screen fold increase 10 uM; tested in PC3 cells;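 GFP signal in the first replicate; 1 = infected wells without compound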
* marks the source's active call; other numbers are inactive results.

How did O=C(Nc1ncn[nH]1)c1c(Cl)ccc(Cl)c1Cl do in these assays?
GALR2 ag: -1.1; Insulin prom inh: 16.3; RGS16-Gao: 105.9; PKD1 kinase inh: -3.1; HSV augment: inactive; Insulin prom inh cell count: 105.5; HSV augment primary fold: 0.993

What do the screens show for `Cc1cccc(NC(=S)Nc2cccc(C(F)(F)F)c2)n1`?
GALR2 ag: -1.0; Insulin prom inh: 33.3; RGS16-Gao: 141.7; PKD1 kinase inh: -0.1; HSV augment: inactive; Insulin prom inh cell count: 101.2; HSV augment primary fold: 0.95

How did Oc1ccc(-c2nc3ccccc3s2)cc1 do in these assays?
RGS16-Gao: 100.4; HSV augment: inactive; HSV augment primary fold: 0.98

What do the screens show for `COc1nc(Nc2cccc([N+](=O)[O-])c2)nc(OC)n1`?
Insulin prom inh: -27.3; RGS16-Gao: 113.2; PKD1 kinase inh: 5.7; HSV augment: inactive; Insulin prom inh cell count: 72.7; HSV augment primary fold: 0.84

Results for C=CCCc1ccc(C#N)c(SCc2c(C(=O)OCC)c3cc(OC(C)=O)c(Br)cc3n2C)n1 ?
GALR2 ag: -1.6; RGS16-Gao: 94.0; PKD1 kinase inh: -3.0; HSV augment: inactive; HSV augment primary fold: 1.04

Results for CC1(C)OC(=O)N2CCc3ccccc3C21C (configuration not stated) ?
GALR2 ag: -2.9; Insulin prom inh: -51.7; RGS16-Gao: 98.0; PKD1 kinase inh: 2.3; HSV augment: inactive; Insulin prom inh cell count: 65.8; HSV augment primary fold: 1.05

Results for O=S(=O)(Nc1ccc(Br)cn1)c1cccs1 ?
RGS16-Gao: 98.8; PKD1 kinase inh: -5.0; HSV augment: inactive; HSV augment primary fold: 1.02

What do the screens show for `Cc1cc(C)nc(OC(=O)c2c(Cl)cc(Cl)cc2Cl)n1`?
Insulin prom inh: 42.9; RGS16-Gao: 105.8; PKD1 kinase inh: -2.8; HSV augment: inactive; Insulin prom inh cell count: 113.1; HSV augment primary fold: 0.92

Results for O=C(CCN1CCN(c2ccc(Cl)cc2)CC1)Nc1nccs1 ?
GALR2 ag: -0.7; Insulin prom inh: -11.1; RGS16-Gao: 96.0; PKD1 kinase inh: 2.2; HSV augment: inactive; Insulin prom inh cell count: 111.5; HSV augment primary fold: 1.17

Results for O=C(Cn1c(=O)n(-c2ccccc2)c(=O)c2oc3ccccc3c21)Nc1ccccc1 ?
GALR2 ag: -0.7; Insulin prom inh: 29.0; RGS16-Gao: 104.0; PKD1 kinase inh: 4.9; HSV augment: inactive; Insulin prom inh cell count: 164.9; HSV augment primary fold: 0.75

What do the screens show for `CCOCCCNC(=O)C(NC(=O)c1ccccc1O)c1ccc(Cl)cc1` (configuration not stated)?
RGS16-Gao: 104.0; PKD1 kinase inh: -4.5; HSV augment: inactive; HSV augment primary fold: 1.11

How did COc1cc(CNc2cc(C)ccc2C)cc(OC)c1OC do in these assays?
GALR2 ag: -2.4; RGS16-Gao: 94.4; PKD1 kinase inh: -12.6; HSV augment: inactive; HSV augment primary fold: 1.1

What do the screens show for `CC(C)C(=O)Nc1cccc(C(=O)Nc2cc([N+](=O)[O-])ccc2F)c1`?
RGS16-Gao: 95.7; PKD1 kinase inh: -6.4; HSV augment: inactive; HSV augment primary fold: 0.9

Results for OC(CNCc1ccccc1F)(c1ccc(F)cc1)c1ccc(F)cc1 ?
RGS16-Gao: 102.0; PKD1 kinase inh: 1.3; HSV augment: inactive; HSV augment primary fold: 1.01

How did COc1ccc(N(CC(=O)NCC2CCCO2)S(=O)(=O)c2c(C)noc2C)cc1 (configuration not stated) do in these assays?
GALR2 ag: -2.3; RGS16-Gao: 98.4; PKD1 kinase inh: 2.0; HSV augment: inactive; HSV augment primary fold: 0.75

Results for Cc1cccc(Cn2c(C)nc3c(N)c(C)c(C)cc32)c1 ?
Insulin prom inh: 21.4; RGS16-Gao: 100.8; PKD1 kinase inh: 4.5; HSV augment: inactive; Insulin prom inh cell count: 153.1; HSV augment primary fold: 0.9

What do the screens show for `COC1CCCCC1Nc1cc(C)ccc1C` (configuration not stated)?
GALR2 ag: -0.6; RGS16-Gao: 104.2; PKD1 kinase inh: -11.1; HSV augment: inactive; HSV augment primary fold: 0.93

What do the screens show for `O=C(NCCNCCO)c1c(O)c2cccc3c2n(c1=O)CCC3`?
GALR2 ag: -1.1; Insulin prom inh: -13.9; RGS16-Gao: 102.5; PKD1 kinase inh: 20.0; HSV augment: inactive; Insulin prom inh cell count: 132.2; HSV augment primary fold: 0.86

What do the screens show for `CCC(=O)Nc1cccc(C2=NOC3(C2)C[C@@H](C(N)=O)N(C(=O)CC(c2ccccc2)c2ccccc2)C3)c1` (some centres not stated)?
RGS16-Gao: 96.7; HSV augment: inactive; HSV augment primary fold: 0.91

Results for COC(=O)c1cccc(NC(=O)c2cc(OC)c(OC)c(OC)c2Br)c1 ?
GALR2 ag: -0.3; Insulin prom inh: -54.5; RGS16-Gao: 108.4; PKD1 kinase inh: 0.8; HSV augment: inactive; Insulin prom inh cell count: 96.4; HSV augment primary fold: 0.97

Results for COc1ccc(/C=N/NC(=O)c2ccc(Cl)cc2Cl)cc1COC(C)=O ?
GALR2 ag: -0.7; Insulin prom inh: -8.3; RGS16-Gao: 64.0; PKD1 kinase inh: -9.2; Insulin prom inh cell count: 88.0

What do the screens show for `C=CCN1C(=O)S/C(=C\c2ccc3c(c2)n(C)c(=O)n3C)C1=O`?
GALR2 ag: -1.0; Insulin prom inh: 12.5; RGS16-Gao: 52.3; PKD1 kinase inh: 4.6; HSV augment: inactive; Insulin prom inh cell count: 39.0; HSV augment primary fold: 0.97

Results for CC(NC(=O)/C=C/c1ccco1)c1nc2ccccc2n1Cc1ccccc1F (configuration not stated) ?
GALR2 ag: -0.3; Insulin prom inh: -9.1; RGS16-Gao: 96.5; PKD1 kinase inh: 5.2; HSV augment: inactive; Insulin prom inh cell count: 184.3; HSV augment primary fold: 0.91

How did CC(=O)N/C(=C\c1ccc2c(c1)OCO2)C(=O)NC(C(=O)O)c1ccccc1 (configuration not stated) do in these assays?
RGS16-Gao: 99.2; HSV augment: inactive; HSV augment primary fold: 0.78

How did N#CC1=C(Nc2ccccc2)SC=C(c2ccccc2)N=C1N1CCOCC1 do in these assays?
GALR2 ag: -1.9; Insulin prom inh: 0.0; RGS16-Gao: 102.2; PKD1 kinase inh: -5.8; Insulin prom inh cell count: 130.2

How did Cn1c(SCC(=O)c2ccc(-c3ccccc3)cc2)nnc1-c1ccco1 do in these assays?
GALR2 ag: -1.4; Insulin prom inh: -32.1; RGS16-Gao: 91.9; PKD1 kinase inh: 4.0; HSV augment: inactive; Insulin prom inh cell count: 73.7; HSV augment primary fold: 0.99

What do the screens show for `CC(C)NC(=O)NC(=O)COC(=O)C1CCCN1C(=O)c1cccs1` (configuration not stated)?
GALR2 ag: -1.2; Insulin prom inh: -37.1; RGS16-Gao: 96.5; PKD1 kinase inh: -10.5; HSV augment: inactive; Insulin prom inh cell count: 143.4; HSV augment primary fold: 1.04

Results for CCCSc1n[nH]c(NC(C)=O)n1 ?
GALR2 ag: -3.4; RGS16-Gao: 113.5; PKD1 kinase inh: -4.2; HSV augment: inactive; HSV augment primary fold: 1.02

Results for COc1cc2[nH]c(=O)n(Cc3ccc(C(=O)NCCCN4CCC(C)CC4)cc3)c(=O)c2cc1OC ?
GALR2 ag: -2.8; Insulin prom inh: -31.4; RGS16-Gao: 89.2; PKD1 kinase inh: 5.2; HSV augment: inactive; Insulin prom inh cell count: 96.9; HSV augment primary fold: 0.85

How did CCNC(=O)c1ccc(NS(=O)(=O)c2ccccc2)cc1 do in these assays?
GALR2 ag: -2.0; Insulin prom inh: 9.1; RGS16-Gao: 157.2; PKD1 kinase inh: 5.1; HSV augment: inactive; Insulin prom inh cell count: 139.8; HSV augment primary fold: 1.04

Ordered by count of non-hydrogen atoms (smallest number first): three of the compounds above
What do the screens show for `Cc1cc(C)nc(OC(=O)c2c(Cl)cc(Cl)cc2Cl)n1`?
Insulin prom inh: 42.9; RGS16-Gao: 105.8; PKD1 kinase inh: -2.8; HSV augment: inactive; Insulin prom inh cell count: 113.1; HSV augment primary fold: 0.92

Results for OC(CNCc1ccccc1F)(c1ccc(F)cc1)c1ccc(F)cc1 ?
RGS16-Gao: 102.0; PKD1 kinase inh: 1.3; HSV augment: inactive; HSV augment primary fold: 1.01

How did COc1ccc(N(CC(=O)NCC2CCCO2)S(=O)(=O)c2c(C)noc2C)cc1 (configuration not stated) do in these assays?
GALR2 ag: -2.3; RGS16-Gao: 98.4; PKD1 kinase inh: 2.0; HSV augment: inactive; HSV augment primary fold: 0.75

Gathered by group, the compounds so far containing a cyano group
Results for C=CCCc1ccc(C#N)c(SCc2c(C(=O)OCC)c3cc(OC(C)=O)c(Br)cc3n2C)n1 ?
GALR2 ag: -1.6; RGS16-Gao: 94.0; PKD1 kinase inh: -3.0; HSV augment: inactive; HSV augment primary fold: 1.04

How did N#CC1=C(Nc2ccccc2)SC=C(c2ccccc2)N=C1N1CCOCC1 do in these assays?
GALR2 ag: -1.9; Insulin prom inh: 0.0; RGS16-Gao: 102.2; PKD1 kinase inh: -5.8; Insulin prom inh cell count: 130.2

Later entries:
How did Cn1c(=O)c2c(nc(NCc3ccco3)n2C)n(C)c1=O do in these assays?
GALR2 ag: -3.4; Insulin prom inh: -237.9; RGS16-Gao: 102.7; PKD1 kinase inh: 0.3; HSV augment: inactive; Insulin prom inh cell count: 44.7; HSV augment primary fold: 0.72

What do the screens show for `COc1cc(O)c(C(CC(=O)N2CCCC2)c2ccc(N(C)C)cc2)c(OC)c1` (configuration not stated)?
RGS16-Gao: 99.5; HSV augment: inactive; HSV augment primary fold: 0.87

Results for O=C(Nc1nc2ccc(S(=O)(=O)N3CCOCC3)cc2s1)c1cccs1 ?
RGS16-Gao: 106.0; PKD1 kinase inh: -0.1; HSV augment: inactive; HSV augment primary fold: 0.93

Results for CC(=O)CC(=O)NC1C2CC3CC(C2)CC1C3 (configuration not stated) ?
GALR2 ag: -2.5; RGS16-Gao: 106.2; PKD1 kinase inh: 0.4; HSV augment: inactive; HSV augment primary fold: 0.92

Results for COc1ccc(CNC(=O)C(Cc2ccccc2)n2cccc2)cc1 (configuration not stated) ?
RGS16-Gao: 97.8; HSV augment: inactive; HSV augment primary fold: 0.98

What do the screens show for `O=C(NC1CCCCCCC1)C1CCN(S(=O)(=O)N2CCC3(CC2)OCCO3)CC1`?
GALR2 ag: -1.9; Insulin prom inh: 40.6; RGS16-Gao: 103.1; PKD1 kinase inh: -5.6; HSV augment: inactive; Insulin prom inh cell count: 111.0; HSV augment primary fold: 1.22

Results for CCC(=O)Oc1c(S(=O)(=O)c2ccc(C)cc2)c(C)nn1C(C)(C)C ?
GALR2 ag: -0.7; RGS16-Gao: 100.0; PKD1 kinase inh: 12.6; HSV augment: inactive; HSV augment primary fold: 0.98

What do the screens show for `CCCCOc1ccc(C(=O)Nc2ccc3c(c2)OCO3)cc1`?
RGS16-Gao: 99.9; PKD1 kinase inh: -0.6; HSV augment: inactive; HSV augment primary fold: 1.06

What do the screens show for `Cc1cc(C)c(OCCN2C(=O)NC(C)(C)C2=O)c(Cl)c1`?
GALR2 ag: -3.3; Insulin prom inh: -7.7; RGS16-Gao: 99.9; PKD1 kinase inh: 1.5; HSV augment: inactive; Insulin prom inh cell count: 95.6; HSV augment primary fold: 0.86

How did O=C(NC(c1ccccc1)c1ccccc1)C1CCCO1 (configuration not stated) do in these assays?
Insulin prom inh: 0.0; RGS16-Gao: 103.7; PKD1 kinase inh: -1.5; HSV augment: inactive; Insulin prom inh cell count: 121.3; HSV augment primary fold: 0.91

What do the screens show for `O=C(CCn1c(=O)sc2ccccc21)Nc1nc2ccccc2s1`?
GALR2 ag: -1.4; RGS16-Gao: 102.1; PKD1 kinase inh: -2.3; HSV augment: inactive; HSV augment primary fold: 0.87

How did CCOC(=O)c1cccnc1NC(=O)c1ccccc1 do in these assays?
GALR2 ag: 0.0; RGS16-Gao: 95.1; PKD1 kinase inh: 4.0; HSV augment: inactive; HSV augment primary fold: 1.05

What do the screens show for `O=C(Cn1cccc1C(=O)c1ccccc1)NCc1ccc2c(c1)OCO2`?
GALR2 ag: -1.0; Insulin prom inh: -57.1; RGS16-Gao: 104.6; PKD1 kinase inh: -6.8; HSV augment: inactive; Insulin prom inh cell count: 142.0; HSV augment primary fold: 1.03

How did CCc1ccc2[nH]c(=O)c(CN(CCN3CCCC3)C(=O)NC3CCCCC3)cc2c1 do in these assays?
GALR2 ag: 0.6; Insulin prom inh: -23.1; RGS16-Gao: 97.4; PKD1 kinase inh: -12.5; HSV augment: inactive; Insulin prom inh cell count: 163.6; HSV augment primary fold: 0.95

What do the screens show for `COc1ccc(C(=O)NC(=S)N(CCC(C)C)c2c(N)n(Cc3ccccc3)c(=O)[nH]c2=O)cc1`?
GALR2 ag: -0.4; RGS16-Gao: 100.6; PKD1 kinase inh: 3.7; HSV augment: inactive; HSV augment primary fold: 0.9

High-throughput results as filed in PubChem.
